High-throughput results: PubChem BioAssay, National Center for Advancing Translational Sciences (NCATS)
EPAC2 antag = validation of human EPAC2 antagonists; Q8WZA2; EPAC2 Rap1B BODIPY-GDP exchange, fluorescence; Potency, µM (highest dose often 112 µM), without a hit: at the highest dose activity, negative = inhibition, actives largely listed as inhibitors; 1.7% of 16,000 active; active = well fitted inhibition curve with a large enough effect; inconclusive = small, poorly fitted or top-dose-only effect; inactive = no such curve, though single readings can be large or run the other way;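 note: 100% = activation by cAMP agonist control; nearly all actives have a fitted effect of over 40% in size; the record reuses the description of the EPAC1 agonist screen; inactives centre near -10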
Target sequence (Q8WZA2 whole entry, looked up): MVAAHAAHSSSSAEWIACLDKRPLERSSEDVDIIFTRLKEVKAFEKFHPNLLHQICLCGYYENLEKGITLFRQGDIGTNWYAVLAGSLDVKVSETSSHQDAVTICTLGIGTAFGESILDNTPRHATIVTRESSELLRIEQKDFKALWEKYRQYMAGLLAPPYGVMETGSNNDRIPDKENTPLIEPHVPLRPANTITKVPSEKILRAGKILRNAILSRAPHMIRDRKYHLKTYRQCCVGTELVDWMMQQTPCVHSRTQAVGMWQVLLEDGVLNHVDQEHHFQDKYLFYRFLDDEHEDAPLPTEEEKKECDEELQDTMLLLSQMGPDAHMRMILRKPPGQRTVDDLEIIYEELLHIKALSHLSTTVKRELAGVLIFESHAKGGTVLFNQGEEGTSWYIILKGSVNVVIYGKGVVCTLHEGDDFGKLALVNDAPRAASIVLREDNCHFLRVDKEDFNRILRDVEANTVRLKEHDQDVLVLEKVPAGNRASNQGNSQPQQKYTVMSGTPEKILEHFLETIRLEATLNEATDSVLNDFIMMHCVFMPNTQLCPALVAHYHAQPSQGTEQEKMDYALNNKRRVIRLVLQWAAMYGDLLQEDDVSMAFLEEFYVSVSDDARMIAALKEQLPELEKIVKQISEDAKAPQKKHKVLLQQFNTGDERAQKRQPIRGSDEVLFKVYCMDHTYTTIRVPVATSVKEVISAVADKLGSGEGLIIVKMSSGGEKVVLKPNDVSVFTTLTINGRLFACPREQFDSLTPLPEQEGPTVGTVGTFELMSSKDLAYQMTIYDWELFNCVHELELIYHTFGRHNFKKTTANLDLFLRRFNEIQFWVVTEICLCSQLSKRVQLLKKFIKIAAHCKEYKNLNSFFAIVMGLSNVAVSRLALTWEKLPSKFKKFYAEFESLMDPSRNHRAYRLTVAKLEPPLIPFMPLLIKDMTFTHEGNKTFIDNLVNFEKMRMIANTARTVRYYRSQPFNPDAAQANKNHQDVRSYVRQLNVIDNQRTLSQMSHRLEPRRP
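Normalized against a 6.5 mM cAMP agonist control, compounds were tested on 100 nM EPAC2 exchanging Rap1B-bound BODIPY-GDP (250 nM) for 50 uM GDP. Fluorescence drop (ex 480, em 540 nm) was tracked at room temperature over 30 min at 5-min intervals.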
An asterisk follows results filed as active; ? = inconclusive; & = joins results of further samples; ! = repeats disagree; [ ] = dose if it differs, or a comment. Potency is the fitted concentration of half-maximal effect. This is a subset; rates above refer to the full screens.

SMILES	EPAC2 antag
O=C(NC1CCC(n2cc(C(=O)NC3CC3)nn2)CC1)C(=O)c1ccccc1 (centres undefined)	-18.6%
CCCCCCCC/C=C\CCCCCCCC(=O)NCCO	?
O=[N+]([O-])c1cccc2c(Br)[nH]nc12	?
CCNc1ncc2nc(CCc3ccccc3)c(=O)n(-c3ccc(OC)cc3)c2n1	?
CCCCCC(=O)/C=C/C=C\CCCCCCCC(=O)O	-22.9%[1.17 µM]
NC[C@H]1O[C@H](O[C@H]2[C@H](O)[C@@H](O[C@H]3O[C@H](CO)[C@@H](O)[C@H](N)[C@H]3O)[C@H](N)C[C@@H]2N)[C@H](N)C[C@@H]1O	-3.6%[56.6 µM]
CC(C)NC(=O)N1CCCC2(CCN(C(=O)c3ccco3)CC2)C1	-7.6%
C[C@@H]1c2ccccc2CN1CC1=NCCN1	1.6%
Cc1cnc(CNc2ncncc2-c2ccccc2C(F)(F)F)cn1	-7.6%
C=C1CCC2[C@](C)(CO)[C@H](O)CC[C@@]2(C)[C@@H]1C/C=C1/C(=O)OC[C@H]1O (some centres undefined)	-7.8%
CN(C)Cc1ccccc1-c1cncnc1Nc1ccc(F)cc1	-7.8%
CC(C)c1c(C(=O)N(C)Cc2cccc3ncccc23)cnn1-c1nccc(-c2ccccc2F)n1	-26.6%
CN1CCN(c2ncc3nc(-c4ccc(Cl)cc4)c(=O)n(C4CC4)c3n2)CC1	-8.8%
C#CC1(O)CC[C@H]2[C@@H]3CCC4=CCCC[C@@H]4[C@H]3CC[C@@]21C (some centres undefined)	?
CN1CC(O)C2=CC(=O)C(=O)C=C21 (centres undefined)	79.4µM*
Cc1nc2cc(NC(=O)[C@@H]3C[C@@H](Sc4ccccn4)CN3Cc3cccc(Cl)c3)ccc2s1	6.1%
O=C1CSC2(CCN(CCCN3c4ccccc4Sc4ccc(Cl)cc43)CC2)N1	-28.0%
CC(=O)NCCNc1ncnc2ccc(-c3ccccc3C#N)cc12	-0.2%
Nc1nc2c(ncn2[C@@H]2O[C@H](COP(=O)(O)OP(=O)(O)OP(=O)(O)O)[C@@H](O)C2O)c(=O)[nH]1 (some centres undefined)	13.3%
CC(=O)NCCCS(=O)(=O)O	-9.3%
COC1OC2COC(c3ccccc3)OC2C(O)C1O (centres undefined)	-16.3%
COc1ccc2c(c1)CCc1cnc(-n3ncc(C(=O)NCc4cccnc4)c3C3CC3)nc1-2	6.6%
COc1cccc(Cn2c(=O)cnc3cnc(OCc4ccccc4)nc32)c1	-25.8%
CNC(=O)[C@H]1O[C@H](n2cnc3c(NCc4cccc(I)c4)ncnc32)[C@@H](O)[C@@H]1O	-18.6%
CSc1nnc(CCNC(=O)c2ccc(-c3cccc(F)c3)cc2)n1-c1ccc(F)cc1	-26.1%
C[C@@H]1NS(=O)(=O)[C@H]2C[C@@H]3C=C[C@]2(O3)[C@H]1OC(=O)Nc1ccc(C(F)(F)F)cc1[N+](=O)[O-]	-29.8%
CCOC(=O)NNc1ccc(N(CC)CC(C)O)nn1 (centres undefined)	28.5%
O=C(c1cc(C(F)(F)F)cc(C(F)(F)F)c1)N1CCC2(CCN(Cc3ccncc3)CC2)CC1	-24.0%
CC(=O)Nc1ccc(C(=O)N2CCCC(n3cc(C(=O)NCC(C)C)nn3)C2)cc1 (centres undefined)	-17.3%
O=C1CC[C@H](C(=O)O)N1	-10.4%
CCC(C)(CN(C)C)OC(=O)c1ccccc1 (centres undefined)	26.9%[56.6 µM]
O=C(c1cc(C(F)(F)F)cc(C(F)(F)F)c1)N1CCC2(CC1)CN(Cc1ccncc1)C2	?
CN(C)S(=O)(=O)c1ccc2c(c1)/C(=C/c1cc3c([nH]1)CCCC3)C(=O)N2	33.0%[activator]
CC(N)=O	-18.4%
COc1cc(CNC(=O)CCCC/C=C/C(C)C)ccc1O	39.8µM*!
O=C(Nc1cccc(F)c1)N1CC[C@@]2(CCCN(C(=O)c3cccc(F)c3)C2)C1	-12.0%
Cc1cccc2c(N3CCCC3)nc(CNS(=O)(=O)c3ccccc3Cl)nc12	-3.5%
CC(=O)N[C@@H]([C@@H](O)[C@H](O)[C@H](O)CO)[C@@H](O)CC(=O)C(=O)O	1.2%
CC(C)C(=O)NC(C)c1nnc2n1CCN(Cc1cccc3ncccc13)CC2 (centres undefined)	4.4%
Cc1ccc(C(=O)Nc2cccc(-c3nc(CNC(=O)c4ccccc4-n4cccn4)c(C)o3)c2)s1	-17.5%
COCCn1c(=O)c(C)nc2cncnc21	10.3%
O=C(c1cccc(F)c1)N1CCC2(CC1)CCN(c1ccccc1)CC2	-18.3%
COc1ccc(/C=C/C(=O)CC(=O)/C=C/c2cccc(O)c2OC)cc1O	117.6%[activator][151 µM]
COc1cc2nc(N3CCN(C(=O)[C@H]4CCCO4)CC3)nc(N)c2cc1OC	-24.4%
COC(=O)c1ccccc1C(=O)NCC1Cc2cc(-c3nc(C)cnc3C)ccc2O1 (centres undefined)	9.1%
CC(Oc1ccccc1)C(=O)N[C@@H]1C(=O)N2[C@@H]1SC(C)(C)[C@@H]2C(=O)OCc1ccccc1 (some centres undefined)	?
C[C@H]1C[C@H]2[C@@H]3CCC4=CC(=O)C=C[C@]4(C)[C@@]3(Cl)[C@@H](O)C[C@]2(C)[C@@]1(O)C(=O)CO	9.1%
O=c1cc(-c2ccccc2)oc2cc(O)c(O)c(O)c12	2.7%&-44.4%&-16.2%
Nc1nc(N)c2nc(-c3ccccc3)c(N)nc2n1	-6.4%&3.6%&-3.5%
Cc1cccc(CNc2ncnc3ccc(-c4ccoc4)cc23)c1	-39.9%
O=c1c(CCc2ccccc2)nc2cnc(N3CCOCC3)nc2n1CCc1ccccc1	-2.0%
CC(C)(C)c1onc(OCP(=O)(O)O)c1CC(N)C(=O)O (centres undefined)	9.4%&-11.9%
CC(=O)Oc1ccccc1C(=O)O	-8.6%&8.7%&-9.2%
COc1cc(-c2noc(C)c2/C=C/c2ccc(N)cc2)cc(OC)c1OC	-31.7%
CC1=CCC(C(C)(C)O)CC1 (centres undefined)	-6.6%
C[C@H]1CC[C@@H]2N(C1)C[C@H]1[C@@H]3C[C@H]4[C@@H](C/C(=N\O)[C@H]5C[C@@H](O)CC[C@@]54C)[C@@H]3CC[C@H]1[C@]2(C)O	4.3%
Clc1cccc[n+]1CCc1ccccc1	-9.7%
Cc1cc(=O)c2c(O)c3c(O)cc(O)c4c5c(O)cc(O)c6c(O)c7c(=O)cc(C)c8c1c2c(c34)c(c65)c78	-33.9%
CC(=O)O[C@H]1C[C@@H]2CC[C@@H]3[C@H](CC[C@@]4(C)[C@H]3C[C@H](N3CC[N+](C)(C)CC3)[C@@H]4OC(C)=O)[C@@]2(C)C[C@@H]1N1CC[N+](C)(C)CC1	10.4%
Nc1ncnc2c1ncn2[C@@H]1O[C@H](COP(=O)(O)CP(=O)(O)OP(=O)(O)O)[C@@H](O)[C@H]1O	-0.4%&-8.2%

5 of the compounds above, with bars between the fields:
canonical_smiles | EPAC2 antag
COCCn1c(=O)c(C)nc2cncnc21 | 10.3%
O=C(c1cccc(F)c1)N1CCC2(CC1)CCN(c1ccccc1)CC2 | -18.3%
COc1ccc(/C=C/C(=O)CC(=O)/C=C/c2cccc(O)c2OC)cc1O | 117.6%[activator][151 µM]
COc1cc2nc(N3CCN(C(=O)[C@H]4CCCO4)CC3)nc(N)c2cc1OC | -24.4%
COC(=O)c1ccccc1C(=O)NCC1Cc2cc(-c3nc(C)cnc3C)ccc2O1 (centres undefined) | 9.1%

More results follow.
SMILES	EPAC2 antag
CCCN(C/C=C\I)[C@@H]1CCc2cccc(O)c2C1	?
COc1ccc2[nH]cc(CCNc3cc(-c4ccccc4OC)ncn3)c2c1	?
CCCCN1CCCC[C@H]1C(=O)Nc1c(C)cccc1C	-8.2%
O=c1c(-c2ccc(O)cc2)coc2c(C3OC(CO)C(O)C(O)C3O)c(O)ccc12 (centres undefined)	-13.3%
CCCCC[C@H](O)/C=C/[C@H]1C(=O)C=C[C@@H]1C/C=C\CCCC(=O)O	-7.9%[11.4 µM]
N[C@@H](Cn1ccc(=O)n(Cc2ccccc2C(=O)O)c1=O)C(=O)O	-23.6%
NC(=O)Cc1cccc(C(=O)c2ccccc2)c1N	-37.5%
COc1ccccc1CCNCc1cc2cccc(C)c2nc1-c1cccs1	-24.7%
COc1ccc(CNc2ncncc2-c2ccccc2C)c(OC)c1	?
COc1cc(O)c2c(c1)C(=O)c1cc(C)cc(O)c1C2=O	-5.3%
COc1cccc(-c2cc(N(C)Cc3ccco3)ncn2)c1	-16.6%
C1CCN2C[C@@H]3C[C@@H](CN4CCCC[C@@H]34)[C@H]2C1	-12.2%
CCOC(=O)/C=C/c1ccc2c(c1)S(=O)(=O)N(Cc1ccc(OC)cc1)[C@H]2CC(=O)OCC	?
Cn1c2ccccc2c2cc(C(=O)N3CCOc4ccc(C(C)(O)CCn5cccn5)cc4C3)ccc21 (centres undefined)	2.4%
c1ccc(Nc2ncncc2-c2ccoc2)cc1	7.0%
O=S1(=O)CCOC[C@H](c2ccccc2)N1Cc1cccc(F)c1	-31.0%
COc1ccc(-n2c(CNC(=O)c3cccc(OC)c3OC)nnc2SC)cc1	10.0%
C1=C/C(=C2/C=Cc3ccccc32)c2ccccc2N1	-14.0%
COc1ccc2[nH]cc(CCNc3ncncc3-c3cccc(C#N)c3)c2c1	-33.2%
c1ccc(-c2cccc(N3CCCC4(CCNCC4)C3)c2)cc1	-15.4%
O=c1cnc2cnc(Oc3cccc(Cl)c3)nc2n1C[C@H]1CCCO1	?
COc1cccc(-c2ccc(O)c(CNCc3cccc4ccccc34)c2)n1	-13.4%
CC(=O)OCC(=O)[C@@]12OC(C)(C)OC1CC1C3CC(F)C4=CC(=O)C=C[C@@]4(C)[C@@]3(F)C(O)C[C@]12C (some centres undefined)	-3.0%
CC(=O)NCc1c(I)c(NC(C)=O)c(I)c(C(=O)O)c1I	-28.6%
COc1ccc(CNc2ccnc(-c3ccccc3C(F)(F)F)n2)c(OC)c1	-31.2%
Clc1ccccc1-c1nc(N2CCNCC2)c2ccccc2n1	-17.4%
CCOC(=O)C[C@H]1c2cc(F)ccc2S(=O)(=O)N1C1CCCCC1	-21.3%
c1csc(CNc2ccnc(-c3ccc4c(c3)OCO4)n2)c1	-22.7%
CCCCCCCCCCCCCCC(C(=O)OC)C(O)(CC(=O)OC)C(=O)OC (centres undefined)	?
CCCCC1(COC(=O)CCC(=O)O)C(=O)N(c2ccccc2)N(c2ccccc2)C1=O	-22.4%[56.6 µM]
CC(C)(C)CC(C)(C)c1ccc(OCCO)cc1	-20.3%
Cc1cc(O)c2c(O)c3c(O)cccc3cc2c1	-1.3%
C=C1CCC2C(CC2(C)C)C(=C)CC/C1=N/O (centres undefined)	-23.6%
CC(=O)NCCNc1ncnc2ccc(-c3ccc4c(c3)OCO4)cc12	-30.4%
O=c1n(CC2CO2)c(=O)n(CC2CO2)c(=O)n1CC1CO1 (centres undefined)	14.2%
Cc1cccc(CN2CCN(C(c3ccccc3)c3ccc(Cl)cc3)CC2)c1 (centres undefined)	-13.4%
CCNc1ncc2nc(-c3cn(C)c4ccccc34)c(=O)n(-c3ccccc3)c2n1	15.6%
Nc1cc(Cl)c(NC2=NCCN2)c(Cl)c1	-4.8%&9.4%
FC(F)(F)c1ccccc1-c1cncnc1NCc1cccnc1	-6.3%
COc1ccc2[nH]cc(CCNc3ncncc3-c3ccccc3C)c2c1	-42.5%

Some of these compounds in order of formula weight, falling.
SMILES	EPAC2 antag
CC(=O)OCC(=O)[C@@]12OC(C)(C)OC1CC1C3CC(F)C4=CC(=O)C=C[C@@]4(C)[C@@]3(F)C(O)C[C@]12C (some centres undefined)	-3.0%
CCNc1ncc2nc(-c3cn(C)c4ccccc34)c(=O)n(-c3ccccc3)c2n1	15.6%
CC(=O)NCCNc1ncnc2ccc(-c3ccc4c(c3)OCO4)cc12	-30.4%
FC(F)(F)c1ccccc1-c1cncnc1NCc1cccnc1	-6.3%
Clc1ccccc1-c1nc(N2CCNCC2)c2ccccc2n1	-17.4%
c1csc(CNc2ccnc(-c3ccc4c(c3)OCO4)n2)c1	-22.7%
Cc1cc(O)c2c(O)c3c(O)cccc3cc2c1	-1.3%

More results follow:
SMILES	EPAC2 antag
CC(C)Cc1nc2cc(NS(=O)(=O)N(C)C)cc(C(=O)N3CCOc4ccccc4C3)c2n1C	-15.3%
O=C(O)CCCCCCCCc1cn(CN2C(=O)c3ccccc3C2=O)nn1	?
COc1ccc(C2CC(=O)c3c(O)cc(O[C@H]4OC(COC5OC(C)C(O)C(O)[C@@H]5O)C(O)C(O)C4O)cc3O2)cc1O (some centres undefined)	-16.5%
COc1cccc(CN2C(=O)NC(C)(C3CCN(Cc4cccc(O)c4)CC3)C2=O)c1OC (centres undefined)	-11.9%
COc1ccccc1-c1cncnc1NCc1cnc(C)cn1	-21.9%
COc1ccc(-c2nc3cnc(N4CCOCC4)nc3n(C3CC3)c2=O)cc1	3.0%
COc1cccc(-c2ccnc(-n3ncc(C(=O)N(C)CCc4ccccn4)c3C)n2)c1	-3.7%
O=C(c1cnccn1)N1CCC[C@@]2(CCN(c3ccccc3)C2)C1	-18.5%
CCN(CC)Cc1ccc(Nc2ccnc3cc(Cl)ccc23)cc1O	-16.4%
COC(=O)[C@H](Cc1ccccc1)N(Cc1ccc(C)cc1)S(C)(=O)=O	?
C[N@+]12CCCC[C@@H]1CCC(=C(c1cccs1)c1cccs1)C2	5.5%
COc1ncc2nc(-c3ccccc3)c(=O)n(C)c2n1	-12.5%
c1cc2c3c(c1)CCCN3CCC2	?
